High-throughput results deposited in PubChem by SRMLSC.
H5N1 antiviral: antiviral screen in MDCK cells, H5N1 avian flu. AID 740. cytopathic effect, luminescence, 72 h; active compounds read high; no value below 0 was filed and about half of the inactive calls have no number; reference of the scale not given here. 96,000 tested, 0.07% active. inhibition, % at 50 µM; in the data active = inhibition above about 25%
Calls only; i = inactive. These rows are one share of the data (hit frequency here may not be typical).

SMILES | H5N1 antiviral
COc1ccc(C(=O)c2ccccc2)c(O)c1 | i
CC(=O)Oc1ccc2c(C)cc(=O)oc2c1 | i
